High-throughput results from PubChem.
Mtb hypoxia rep: PubChem AID 1159583; M. tuberculosis hypoxia-regulated fluorescent reporter, fluorescence; fluorescence inhibition, % (concentration not given with the values); 0.1% of 300,000 active;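 active means 35 to 45% if threefold the growth effect, above 45% if 1.5-fold the growth effect; inactive means the rest, general growth blockers included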;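 further: wells of about 50 µL received 100 nL stock; 0% = vehicle wells and 100% = reference inhibitor wells; whole bacteria with a GFP reporter of the hypoxia response; strong numbers were not always called active; many hits fall short of the cut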
BJeLR viability: MLPCN primary cell-based screen for lethality selective to Ras in HRASV12 cells. BJeLR (HRASV12) viability, CellTiter-Glo ATP luminescence, 48 h; reference of the scale not given here. inhibition, % (concentration not given with the values). 0.17% of 300,000 active. AID 1554, 2009;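 active means replicate mean above 50%; inconclusive means above 50% but judged a plate artefact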;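 further: 50 nL library stock added to about 25 µL; numbers are from one replicate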
Sa ugtP lethal: growth inhibition of ugtP-null S. aureus, primary screen, RN4220 ugtP deletion, OD600 | 16 h; some inactives read as strong as hits | growth inhibition, % (concentration not given with the values) | 0.54% of 330,000 active;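 active means z-score under -3 and OD600 up to 0.15 on both plates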;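 further: plate controls were untreated wells for no effect and antibiotic for full effect; wells of about 80 µL received 100 nL stock; the first replicate is given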
PrP 5UTR inh: inhibition of PrP 5' UTR reporter expression. cell-based PrP 5' UTR mRNA reporter, plate reader. inhibition, % (no concentration beside the values). 0.35% of 340,000 active;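 active means every replicate at 50% or more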;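 further: 0 = median of the neutral control wells; tested in H4 reporter cells; numbers are from one replicate; inactives centre near -14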
Sa RN4220 lethal: growth inhibition of S. aureus RN4220, primary screen, OD600; 0.33% of 330,000 active; inhibition, % (no concentration beside the values); 16 h; AID 1259311, 2017;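 active means z-score of -3 or lower and OD600 up to 0.18 on both plates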;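 further: plate controls were untreated cells for no effect and reference antibiotic for full effect; stock transfer was 100 nL into about 80 µL; one replicate is shown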
Autofluor counter: flagged as autofluorescent in microsphere protease counterscreen | compound autofluorescence counterscreen, microsphere flow cytometry; hits give high values | fluorescence intensity (test concentration not listed) | 3.1% of 360,000 active;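 active means at least 3 SD above the mean of all compounds, about 16000 in these data; inconclusive means too few beads counted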;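 further: 100 nL of 1 mM stock went into each well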
Mtb hypoxia rep growth: also measured in Mtb hypoxia rep; calls as there; growth inhibition, %; measured here: M. tuberculosis growth (absorbance);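 0% = vehicle and 100% = reference antibiotic; read after six days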
Starred values were filed as active, the others as inactive.

Start of the data: the first 6 records, ahead of the listing:
Screening Cn1c2ccccc2c2c(C(=O)N3CCN(C(=O)c4ccco4)CC3)cn(C3CCCCC3)c(=O)c21 returned Mtb hypoxia rep 1.9, BJeLR viability -7.2, Sa ugtP lethal -4.6, PrP 5UTR inh -8.3, Sa RN4220 lethal 2.0, Autofluor counter 4263 and Mtb hypoxia rep growth 12.0.
For CC(C)(C)C(=O)Nc1ccc(S(=O)(=O)N2CCCC2)cc1 the results were Mtb hypoxia rep 4.4, BJeLR viability -8.4, Sa ugtP lethal 13.7, PrP 5UTR inh -4.0, Sa RN4220 lethal 3.1, Autofluor counter 4263 and Mtb hypoxia rep growth 6.1.
For CCCCC1OC2(C)OC(=N)C1(C#N)C(C#N)(C#N)C2c1ccccc1 (configuration not stated) the results were Mtb hypoxia rep 0.6, Sa ugtP lethal 11.8, PrP 5UTR inh -7.6, Sa RN4220 lethal 6.9, Autofluor counter 2118 and Mtb hypoxia rep growth -0.3.
NC(=O)c1ccc2nc(NC(=O)c3ccc(N)cc3)sc2c1 was read as Mtb hypoxia rep 2.6, BJeLR viability -3.9, Sa ugtP lethal -7.5, PrP 5UTR inh -33.7, Sa RN4220 lethal 8.7, Autofluor counter 3972 and Mtb hypoxia rep growth 4.1.
`COCCOC(=O)c1c(NC(=O)CNC2CCCc3ccccc32)sc(C(N)=O)c1C` (configuration not stated) gave Mtb hypoxia rep 0.0, BJeLR viability 0.1, Sa ugtP lethal -11.2, PrP 5UTR inh -9.8, Sa RN4220 lethal 1.3, Autofluor counter 4652 and Mtb hypoxia rep growth -6.8.
For CCN(C(=O)COC(=O)Cn1c(=O)oc2ccccc21)c1c(N)n(Cc2ccccc2)c(=O)[nH]c1=O the results were Mtb hypoxia rep 5.7, Sa ugtP lethal 0.2, PrP 5UTR inh -3.3, Sa RN4220 lethal -2.1, Autofluor counter inconclusive and Mtb hypoxia rep growth 4.4.

The listing, previewed entries included:
Screening Cn1c2ccccc2c2c(C(=O)N3CCN(C(=O)c4ccco4)CC3)cn(C3CCCCC3)c(=O)c21 returned Mtb hypoxia rep 1.9, BJeLR viability -7.2, Sa ugtP lethal -4.6, PrP 5UTR inh -8.3, Sa RN4220 lethal 2.0, Autofluor counter 4263 and Mtb hypoxia rep growth 12.0.
For CC(C)(C)C(=O)Nc1ccc(S(=O)(=O)N2CCCC2)cc1 the results were Mtb hypoxia rep 4.4, BJeLR viability -8.4, Sa ugtP lethal 13.7, PrP 5UTR inh -4.0, Sa RN4220 lethal 3.1, Autofluor counter 4263 and Mtb hypoxia rep growth 6.1.
For CCCCC1OC2(C)OC(=N)C1(C#N)C(C#N)(C#N)C2c1ccccc1 (configuration not stated) the results were Mtb hypoxia rep 0.6, Sa ugtP lethal 11.8, PrP 5UTR inh -7.6, Sa RN4220 lethal 6.9, Autofluor counter 2118 and Mtb hypoxia rep growth -0.3.
NC(=O)c1ccc2nc(NC(=O)c3ccc(N)cc3)sc2c1 was read as Mtb hypoxia rep 2.6, BJeLR viability -3.9, Sa ugtP lethal -7.5, PrP 5UTR inh -33.7, Sa RN4220 lethal 8.7, Autofluor counter 3972 and Mtb hypoxia rep growth 4.1.
`COCCOC(=O)c1c(NC(=O)CNC2CCCc3ccccc32)sc(C(N)=O)c1C` (configuration not stated) gave Mtb hypoxia rep 0.0, BJeLR viability 0.1, Sa ugtP lethal -11.2, PrP 5UTR inh -9.8, Sa RN4220 lethal 1.3, Autofluor counter 4652 and Mtb hypoxia rep growth -6.8.
For CCN(C(=O)COC(=O)Cn1c(=O)oc2ccccc21)c1c(N)n(Cc2ccccc2)c(=O)[nH]c1=O the results were Mtb hypoxia rep 5.7, Sa ugtP lethal 0.2, PrP 5UTR inh -3.3, Sa RN4220 lethal -2.1, Autofluor counter inconclusive and Mtb hypoxia rep growth 4.4.
For COc1cc(C2=NOC(C(=O)N3CCOCC3)C2)cc(OC)c1OC (configuration not stated) the results were Mtb hypoxia rep 9.9, Sa ugtP lethal -3.8, PrP 5UTR inh -6.5, Sa RN4220 lethal 6.0, Autofluor counter 24903* and Mtb hypoxia rep growth 5.3.
Screening CC(C)(C)c1ccc(C(=O)NC(=S)NNC(=O)COc2ccccc2)cc1 returned Mtb hypoxia rep 1.2, BJeLR viability 5.4, Sa ugtP lethal 10.2, PrP 5UTR inh -0.2, Sa RN4220 lethal 29.0, Autofluor counter 6672 and Mtb hypoxia rep growth 0.5.
O=C(Nc1cccc2ncccc12)c1ccc(-c2ccc(Br)cc2)o1 was read as Mtb hypoxia rep 4.9, BJeLR viability -3.2, Sa ugtP lethal -10.0, PrP 5UTR inh -13.1, Sa RN4220 lethal 4.7, Autofluor counter 20512* and Mtb hypoxia rep growth 4.5.
Screening O=C(c1ccc(F)cc1)C1CCN(C(=O)c2ccncc2)CC1 returned Mtb hypoxia rep -4.6, BJeLR viability -1.1, Sa ugtP lethal 4.5, PrP 5UTR inh -17.9, Sa RN4220 lethal 2.8, Autofluor counter 11193 and Mtb hypoxia rep growth -5.3.
For O=C(COc1ccc(-n2cnnn2)cc1)Nc1ccccc1OC(F)F the results were Mtb hypoxia rep -1.2, Sa ugtP lethal 2.8, PrP 5UTR inh 2.1, Sa RN4220 lethal 2.0, Autofluor counter 4645 and Mtb hypoxia rep growth -2.6.
Screening CCOC(=O)CCc1c(C)c2ccc(OCC(=O)N3CCOCC3)c(C)c2oc1=O returned Mtb hypoxia rep 0.6, BJeLR viability -2.3, Sa ugtP lethal -5.6, PrP 5UTR inh 6.6, Sa RN4220 lethal 0.9, Autofluor counter 5587 and Mtb hypoxia rep growth 11.2.
For Cc1ccc(-c2csc3nc(=O)c(C)nn23)cc1 the results were Mtb hypoxia rep 7.7, BJeLR viability 0.9, Sa ugtP lethal 0.4, Sa RN4220 lethal 1.1 and Mtb hypoxia rep growth 9.8.
`O=C(NC(C(=O)N/N=C/c1cccnc1)c1n[nH]c(=O)c2ccccc12)c1ccccc1` (configuration not stated) gave BJeLR viability -12.7, PrP 5UTR inh -2.7 and Autofluor counter 4192.
For C=C1CC2C(=O)N(Cc3cc(OC)ccc3OC)C(C(=O)OCC)(C(=O)OCC)C1N2C(=O)OC(C)(C)C (configuration not stated) the results were Mtb hypoxia rep 3.5, BJeLR viability -3.6, Sa ugtP lethal -3.1, PrP 5UTR inh -4.8, Sa RN4220 lethal -5.9, Autofluor counter 4069 and Mtb hypoxia rep growth 9.9.
`O=C(Nc1cccc(Cl)c1)N1CCN(C2c3ccccc3-c3ccccc32)CC1` gave Mtb hypoxia rep 4.5, BJeLR viability 1.1, Sa ugtP lethal -28.7, PrP 5UTR inh -10.7, Sa RN4220 lethal -10.4, Autofluor counter 3929 and Mtb hypoxia rep growth 4.5.
For COc1ccccc1C(=O)NCCN=C1NS(=O)(=O)c2ccccc21 the results were Mtb hypoxia rep -0.2, BJeLR viability 6.4, Sa ugtP lethal 6.4, PrP 5UTR inh -30.4, Sa RN4220 lethal 0.8, Autofluor counter 3902 and Mtb hypoxia rep growth -2.3.
Screening Cc1cccc(-n2c(SCc3ccc(C#N)cc3)nnc2-c2c[nH]c3ccccc23)c1 returned Mtb hypoxia rep 7.8, BJeLR viability 3.8, Sa ugtP lethal -13.6, PrP 5UTR inh -12.5, Sa RN4220 lethal -12.8, Autofluor counter inconclusive and Mtb hypoxia rep growth 8.3.
Screening Cc1ccc(S(=O)(=O)N2CCN(C(=O)c3cc4c(s3)CCC(C)C4)CC2)cc1 (configuration not stated) returned Mtb hypoxia rep -8.9, Sa ugtP lethal -0.9, PrP 5UTR inh -39.5, Sa RN4220 lethal -2.4, Autofluor counter 7396 and Mtb hypoxia rep growth -10.8.
Screening Nc1c(C(=O)NCc2ccccc2)nnn1Cc1ccc(F)cc1 returned BJeLR viability 4.2, Sa ugtP lethal 4.1, PrP 5UTR inh -0.8, Sa RN4220 lethal -4.0 and Autofluor counter 5837.
Screening c1ccc(-c2nc(-c3ccccn3)no2)cc1 returned Mtb hypoxia rep 4.6, BJeLR viability 14.0, Sa ugtP lethal 1.3, PrP 5UTR inh 46.2, Sa RN4220 lethal 3.2, Autofluor counter 8015 and Mtb hypoxia rep growth -0.6.
Screening CCN(CC(=O)Nc1c(F)cccc1F)C(=O)CNC(=O)c1cccc(C)c1 returned Mtb hypoxia rep -3.7, BJeLR viability 9.1, Sa ugtP lethal 5.1, PrP 5UTR inh -19.5, Sa RN4220 lethal 3.6, Autofluor counter 4950 and Mtb hypoxia rep growth 6.6.
For Cc1cccc(CN2C(=O)c3ccccc3S(=O)(=O)c3ccc(C(=O)NCCCN4CCCC4)cc32)c1 the results were Mtb hypoxia rep 6.1, BJeLR viability -1.1, Sa ugtP lethal -2.2, PrP 5UTR inh -1.7, Sa RN4220 lethal -2.6, Autofluor counter 5402 and Mtb hypoxia rep growth 4.9.
`CC1CCN(CC(=O)NCCc2ccc(F)cc2)CC1` gave Mtb hypoxia rep 13.6, BJeLR viability -6.3, Sa ugtP lethal 2.7, PrP 5UTR inh -15.0, Sa RN4220 lethal 5.3, Autofluor counter 4192 and Mtb hypoxia rep growth 2.0.
For Nc1nc(NCC2CCCO2)nc(Nc2ccc(F)cc2)c1[N+](=O)[O-] (configuration not stated) the results were Mtb hypoxia rep -3.5, BJeLR viability 4.0, Sa ugtP lethal -12.0, PrP 5UTR inh -0.6, Sa RN4220 lethal -3.1, Autofluor counter 2536 and Mtb hypoxia rep growth 2.4.
For CCc1ccccc1N(CC(=O)NCc1ccco1)C(=O)CCC(=O)Nc1ccccn1 the results were Mtb hypoxia rep -6.4, BJeLR viability -7.7, Sa ugtP lethal 2.4, PrP 5UTR inh -8.4, Sa RN4220 lethal 2.9, Autofluor counter 3725 and Mtb hypoxia rep growth -0.8.
Screening CCCN1CCN(S(=O)(=O)c2ccc3c(c2)NC(=O)C(C)S3)CC1 (configuration not stated) returned Mtb hypoxia rep 4.7, BJeLR viability -0.5, Sa ugtP lethal 7.6, PrP 5UTR inh -9.4, Sa RN4220 lethal 1.9, Autofluor counter 5441 and Mtb hypoxia rep growth 7.1.
COc1cc(/C=C2/SC(=S)N(CC(=O)O)C2=O)ccc1OC(=O)c1ccco1 was read as Mtb hypoxia rep -5.4, BJeLR viability -6.1, Sa ugtP lethal 9.7, PrP 5UTR inh -5.5, Sa RN4220 lethal 4.4, Autofluor counter 5847 and Mtb hypoxia rep growth -0.3.
Cc1cc(C)nc(NC2=NC3CCCCC3N2)n1 (configuration not stated) was read as Mtb hypoxia rep 11.3, BJeLR viability -5.5, Sa ugtP lethal 11.2, PrP 5UTR inh -18.9, Sa RN4220 lethal 3.1, Autofluor counter 2608 and Mtb hypoxia rep growth 1.4.
`CCN(C1CCCCC1)S(=O)(=O)c1ccc(OC)c(C)c1` gave BJeLR viability -2.4, Sa ugtP lethal 4.8, PrP 5UTR inh -13.6, Sa RN4220 lethal 4.8 and Autofluor counter 4807.
CC(OC(=O)c1ccccc1NCc1ccco1)C(=O)Nc1ncc(Cl)cc1Cl (configuration not stated) was read as BJeLR viability 0.4, Sa ugtP lethal 1.5, PrP 5UTR inh -23.1, Sa RN4220 lethal -3.2 and Autofluor counter 2459.
Screening CS(=O)(=O)c1ccc(C(=O)Nc2ccc(N3CCCCC3)cc2)c(Cl)c1 returned Mtb hypoxia rep -10.1, BJeLR viability 6.1, Sa ugtP lethal 3.8, PrP 5UTR inh -17.1, Sa RN4220 lethal 1.9, Autofluor counter 2032 and Mtb hypoxia rep growth -3.8.
Screening Cc1cc(-c2ccc(NC(=O)[C@@H]3CCCC[C@@H]3C(=O)O)c(C)c2)ccc1NC(=O)[C@@H]1CCCC[C@@H]1C(=O)O returned Mtb hypoxia rep -0.7, BJeLR viability 8.0, Sa ugtP lethal 2.8, PrP 5UTR inh -21.5, Sa RN4220 lethal 2.0, Autofluor counter 2499 and Mtb hypoxia rep growth 4.6.
COc1ccc2oc(=NO)c(C(=O)Nc3ccc(C)cc3)cc2c1 was read as Mtb hypoxia rep 10.7, Sa ugtP lethal -0.9, Sa RN4220 lethal 16.1 and Mtb hypoxia rep growth 12.5.
Screening CN(c1ccccc1)S(=O)(=O)c1cccc(NC(=O)c2ccc(Cl)c([N+](=O)[O-])c2)c1 returned Mtb hypoxia rep -2.8, Sa ugtP lethal -25.6, PrP 5UTR inh -6.9, Sa RN4220 lethal -14.1, Autofluor counter 15380 and Mtb hypoxia rep growth -5.9.
O=C(Nc1ccccn1)C1CCN(S(=O)(=O)c2cccc3nonc23)CC1 was read as BJeLR viability -11.2, Sa ugtP lethal 9.0, PrP 5UTR inh -23.1, Sa RN4220 lethal -0.8 and Autofluor counter 3023.
